High-throughput results: PubChem BioAssay, ICCB-Longwood Screening Facility, Harvard Medical School
AID504770 – growth inhibitors of E. coli YBA685 in a screen for V. cholerae RctB (chromosome II replication) inhibitors; E. coli YBA685 rctB-dependent plasmid, OD600 growth, 3 h; stronger effect = lower value; z-score (no concentration beside the values); 130,000 tested, 0.27% active;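 active = z-score under -2 on both plates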;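 note: wells of about 30 µL received 100 nL stock; score is relative to mean and SD of the test wells; the first replicate is given; strong numbers were not always called active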
CapD inh – inhibitors of Bacillus anthracis CapD enzyme; purified CapD enzyme, fluorescence intensity read-out; stronger effect = lower value; some hits fall short of the stated cut; z-score (test concentration not listed); 140,000 tested, 0.23% active; AID 492967;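 active = z-score under -4 in either of two replicates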;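 note: stock transfer was 100 nL into about 40 µL; score is relative to mean and spread of the plate; one replicate is shown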
The depositor's hits bear a star; . = not tested or not shown; & = joins results of further samples.

The line under a structure holds: AID504770 | CapD inh
- Clc1ccc(Nc2nc3ccccc3s2)cc1
  1.9 | -0.785
- Cc1ccc(-c2nc3sc4c(c3c(=O)o2)CCCCC4)cc1
  . | -0.075
- O=c1oc2c3c(ccc2c2c1CCC2)OCN(c1ccc(F)cc1)C3
  . | 64.2
- CSc1ccc(Cl)c(C(=O)OCC(N)=O)c1
  1.75 | 9.2
- O=C(CCc1nc2cccnc2n1Cc1ccccc1)NCc1ccccc1
  0.15 | 0.36
- O=C1CCCN1CCCNc1ncnc2c1c(-c1ccccc1)cn2-c1cccc(C(F)(F)F)c1
  . | 0.185
- CN(C)CCCOC(=O)c1ccc2c(c1)OCCO2
  . | 0.16
- CC(C)CC(=O)NC(=S)Nc1cccc2nsnc12
  0.8 | 0.305
- OCCCn1c(-c2ccccc2)csc1=Nc1ccccc1
  -1.1 | -0.335
- O=C1C(=Cc2ccc([N+](=O)[O-])s2)C(=O)c2ccccc21
  . | -0.155
- Cn1c(=O)c2c(SCC(=O)NCC3CCCO3)nc(-c3ccccc3)nc2n(C)c1=O (stereo not given)
  0.6 | .
- Cc1ccc(C(=O)OCC(=O)NC2CCCCC2C)cc1 (stereo not given)
  0.1 | .
- O=C(CCC(=O)N1CCSc2ccccc21)NCC1CCCO1 (stereo not given)
  0.05 | 0.04
- CCCN1CCC(NC(=S)Nc2ccc3c(c2)OCO3)CC1
  1.7 | -0.4
- c1ccc(-c2cc3c(NC4CC4)ncnc3s2)cc1
  -0.35 | .
- CCN(c1ccc([N+](=O)[O-])cc1)c1nc(C)cc(C)n1
  . | -0.935
- NS(=O)(=O)c1ccc(NC(=O)CSc2nnc(-c3ccccc3)c(-c3ccccc3)n2)cc1
  . | -0.69
- CCN(CC)S(=O)C12CC3CC(CC(C3)C1)C2 (stereo not given)
  1.1 | 0.1
- CCC(C)c1ccc(N2C(=O)c3ccccc3NC2c2ccc(OCc3ccccc3)cc2)cc1 (stereo not given)
  . | 16.8
- CSc1nc(N)c(C#N)c(C(C)C)c1C#N
  -0.6 | .

Brought forward from above: 2 entries; new compounds follow.
The line under a structure holds: AID504770 | CapD inh
- CCC(C)c1ccc(N2C(=O)c3ccccc3NC2c2ccc(OCc3ccccc3)cc2)cc1 (stereo not given)
  . | 16.8
- CSc1nc(N)c(C#N)c(C(C)C)c1C#N
  -0.6 | .
- COc1ccc(OCCOC(=O)c2cccc(C#N)c2)cc1
  -0.1 | .
- CCOC(=O)N1CCC(=NNc2ncc(C(F)(F)F)cc2Cl)CC1
  0.65 | .
- CCCCn1cnc2sc3c(c2c1=N)CCCC3
  -0.35 | 0.47
- O=c1c2ccc(-c3nnc(SCCCOc4ccccc4)o3)cc2nc2n1CCCCC2
  -0.6 | .
- O=C1/C(=C/Nc2ccc(Cl)cc2)C(c2ccccc2)c2cccc(F)c21 (stereo not given)
  . | -0.305
- CC(=O)Nc1ccc(S(=O)(=O)NCCC(=O)Nc2ccc3c(c2)OC2(CCCC2)O3)cc1
  1.15 | .
- O=C(Nc1ccccc1)Nc1nnc(C(F)(F)F)s1
  -2 | -0.35
- CSc1nc2c(sc(=S)n2CCc2ccccc2)c(=O)n1Cc1ccco1
  . | 0.3
- O=C(NC1CCCCNC1=O)c1cccnc1Oc1ccc(Cl)cc1 (stereo not given)
  0.65 | 0.12
- CN1CCN(c2nc(-c3cc4ccccc4o3)cs2)CC1
  -0.2 | .
- Cc1cc(C)n(-c2nc3c(c(C(F)(F)F)n2)CC(C)CC3)n1 (stereo not given)
  -0.7 | 0.79
- S=C1N=C(Nc2ccccc2)C2(CCCCC2)N1c1ccc(Cl)cc1
  . | -0.25
- COc1c2c(nc3ccccc13)OC(C(C)(O)CO)C2 (stereo not given)
  0.9 | 0.955&-0.17
- C=CCNC(=O)c1cc2c(=O)n3cccc(C)c3nc2n(CC2CCCO2)c1=N (stereo not given)
  1.2 | -0.585
- CC1(C)CC(=O)C=C(NCc2ccc(S(N)(=O)=O)cc2)C1
  0.65 | 0.165
- O=C1c2ccccc2C(=O)N1CC1c2ccccc2CCN1S(=O)(=O)c1ccc(Cl)cc1 (stereo not given)
  . | -1.25
- Cc1ccc(NC(=O)c2c(-c3c(Cl)cccc3Cl)noc2C)cc1[N+](=O)[O-]
  . | -0.04
- CC(=O)Nc1ccc(I)cc1C(=O)O
  0.4 | .
- CSc1ccccc1C(=O)NCCCN1CCOCC1
  -0.75 | -0.125
- O=C(NC(Cc1ccccc1)C(=O)O)c1ccccc1 (stereo not given)
  -1.1 | .
- O=C1OCc2ccc(NC(=O)C3CCCCC3)cc21
  0.1 | .
- Nc1ccc2nn(-c3ccc(Cl)cc3)nc2c1
  -0.15 | 2.52
- COCCCNC1CCN(Cc2ccccc2)CC1
  -0.55 | .
- CCOC(=O)c1sc(Sc2ccc(C(F)(F)F)cn2)c2c1CC(C)(C)CC2=O
  1.45 | 0.495
- NC(=O)COc1ncnc2ccc(Br)cc12
  0 | .
- C=CCSc1nnc2c(n1)OC(c1cc3c(cc1Br)OCO3)N(C(C)=O)c1ccccc1-2 (stereo not given)
  -1.1 | -0.1
- CCSc1nnc(NC(=O)c2ccc(C)c(S(=O)(=O)N(CC)CC)c2)s1
  -0.2 | .
- CCOC(=O)c1ccccc1NC(=O)c1nn(-c2ccccc2OC)c(=O)c2ccccc12
  0.3 | -0.925
- Cc1cccc(Nc2nc(O)c(/C=C3/C(=O)C=Cc4ccccc43)s2)c1
  . | 1.01
- O=C(O)CN(CC(=O)O)C(=O)/C=C/c1ccccc1
  -0.7 | .
- CCOC(=O)N1CCC(n2c(SCC(=O)c3ccc(Cl)cc3)nc3ccccc3c2=O)CC1
  1.95 | -0.41
- CCc1c(C(=O)c2ccc(OC)cc2)oc2c(C)c3oc(=O)cc(C)c3cc12
  0.55 | 3.53
- Cc1ccc(Nc2ccccc2)nn1
  -0.25 | 0.315
- Cc1n[nH]c(C)c1N=Nc1ccc(Br)cc1
  -1.2 | .
- Cc1c(-c2ccccc2)cn2ccn3c(C)ccc3c12
  . | 0.83
- CC(=O)NN(C)c1ccc(C(F)(F)F)cc1[N+](=O)[O-]
  . | -0.605
- O=C1/C(=C/c2ccc(-c3ccc(Br)cc3)o2)C=C(c2ccccc2)N1c1ccc(O)cc1
  . | -0.335
- COC(=O)CCCNC(=O)c1ccc2cc[nH]c2c1
  . | 50.1
- CCCNC(=O)Cc1ncn[nH]1
  -0.6 | 1.89
- Cc1cc(C)c(C#N)c(N2CCC(C(N)=O)CC2)n1
  0.1 | .
- FC(F)(F)c1cccc(-c2nc3ccccn3n2)c1
  0.45 | 0.03
- COc1cc(-c2nc3ccccc3c(=O)n2NC(=O)c2ccc([N+](=O)[O-])cc2Cl)cc(OC)c1OC
  . | -0.605
- CCc1nc2ccccc2c(C(=O)OCC(N)=O)c1C
  -1.15 | 0.955
- Cc1cc(=O)[nH]c(NNC(=S)Nc2ccc(S(=O)(=O)N3CCOCC3)cc2)n1
  -0.6 | .
- Cc1ccc(-c2ccc(S(=O)(=O)N3CC(C)OC(C)C3)cc2)cc1 (stereo not given)
  -0.1 | 0.535
- O=C(Nc1ccc2sc3ccccc3c(=O)c2c1)c1cccc(C(F)(F)F)c1
  . | -0.145
- O=C(c1cc2c(s1)-c1ccccc1CC2)N1CCN(Cc2ccccc2)CC1
  -0.55 | 9.68
- Cc1sc(CO)c(Sc2ccccc2)c1C(=O)O
  0.3 | -0.22
- CC(C)(C)C(=O)COC(=O)c1cc(Cl)cc(Cl)c1
  0.5 | -0.805
- COCc1c(C(=O)O)oc2ccccc12
  1.6 | .
- Cc1ccc(C(=O)N2CCCn3c2nc2ccccc23)cc1
  -0.05 | .
- CN(CC1COc2ccccc2O1)C(=S)NC1CCCCC1 (stereo not given)
  0.6 | .
- O=C(N/N=C/c1ccco1)c1cccc(N2CCCC2=O)c1
  -0.55 | -1.87
- O=C(CSC1=NCCS1)Nc1nnc(-c2ccc(Br)cc2)s1
  0.55 | 0.045
- COc1ccc(/C=N/NC(=O)c2cc(Br)ccc2Cl)c(C)c1C
  . | 0.475
- Cc1c(C)c(C)c(C(=O)CCC(=O)O)c(C)c1C
  . | -0.235
- Cc1ccc(-n2nnc3c(=O)n(CC#N)cnc32)cc1Cl
  -0.7 | .
- O=C1C(C2(O)C(=O)Nc3ccccc32)CCCC1C1(O)C(=O)Nc2ccccc21 (stereo not given)
  . | -0.03
- CC(C)CNCC1OCc2ccccc2CO1
  -0.15 | .
- COC(=O)c1ccc(Cn2nc(C(F)(F)F)cc2C)cc1
  -0.5 | -0.66

The results go on:
The line under a structure holds: AID504770 | CapD inh
- COc1ccc(/C=C2\CN(C)CC3=C2OC(N)=C(C#N)C3c2ccc(OC)cc2)cc1 (stereo not given)
  . | 3.09
- CCS(=O)CCSc1nc(-c2ccc(OC)cc2)cc(-c2ccccc2)c1C#N (stereo not given)
  . | 1.93
- COc1ccc(-c2cc(C(F)F)nc(-n3nc(C)cc3C)n2)cc1
  -0.35 | .
- N#Cc1ccc(Cn2cnc3ccccc32)cc1
  1.8 | -0.335
- O=C(CN1C(=O)C2CC=CCC2C1=O)Nc1ccc2c(c1)CCC2 (stereo not given)
  -0.1 | .
- COC(=O)C1=C(C)OC(N)=C(C#N)C1c1ccc(C(=O)OC)cc1 (stereo not given)
  1.2 | -0.395
- COc1cccc(CNC(=O)CN2C(=O)c3cccnc3Oc3ccc(C)cc32)c1
  -0.65 | -0.105
- C=CCNC(=O)C1CC(c2ccccc2F)=NO1 (stereo not given)
  0.4 | -0.185
- c1coc(CNCC2OCCCCO2)c1
  -0.7 | .
- Cc1cc(C)n(-c2ccc(C(=O)Nc3nc4ccccc4s3)cc2)n1
  1.25 | 4
- Fc1ccc(-c2ccnc3nc(SCc4c(F)cccc4Cl)nn23)cc1
  . | 2.21
- COC(=O)CSc1nc2ccccc2nc1SCC(=O)OC
  0.45 | .
- CS(=O)(=O)NCc1ccc2c(c1)OCO2
  0.35 | .
- O=C(C1CCC(Cn2c(=O)[nH]c3ccsc3c2=O)CC1)N1CCCC1 (stereo not given)
  -0.5 | 0.795
- COc1cc(NC(=O)C(CC(C)C)NC(=O)C2CCCCC2)cc(OC)c1OC (stereo not given)
  -0.9 | 0.21
- COc1cccc(-n2c(SCC(=O)N3CCC(C)CC3)nc3c([nH]c4ccccc43)c2=O)c1
  -0.65 | 0.62
- O=C(COc1ncnc2ccccc12)Nc1ccc(N2CCCCC2)cc1
  0.2 | .
- Cc1ccc2[nH]cc(NC(=O)NCc3ccco3)c(=O)c2c1
  0.4 | .
- COc1cc(/C=N/NC(=O)c2ccc(N(C)C)cc2)cc(OC)c1OC
  . | 4.08
- O=C(c1cc(Sc2ccc(Cl)cc2)nc2ccccc12)N1CCC2(CC1)OCCO2
  . | 0.635

Profiles, looked up by structure:
O=C1c2ccccc2C(=O)N1CC1c2ccccc2CCN1S(=O)(=O)c1ccc(Cl)cc1 (stereo not given) reads AID504770: .; CapD inh: -1.25
CCOC(=O)N1CCC(n2c(SCC(=O)c3ccc(Cl)cc3)nc3ccccc3c2=O)CC1 reads AID504770: 1.95; CapD inh: -0.41
COC(=O)CCCNC(=O)c1ccc2cc[nH]c2c1 reads AID504770: .; CapD inh: 50.1

Other structures follow:
The line under a structure holds: AID504770 | CapD inh
- C=CCNc1nc(N)sc1C#N
  -0.65 | .
- COc1cc(C=C2C(=O)N(C)C(=O)N(C)C2=O)ccc1OCCBr
  . | -0.54
- O=C(Cc1ccccc1)NCc1ccncc1
  -0.9 | -0.175
- COCCCNc1ncnc2ccc(Br)cc12
  -0.85 | .
- COc1ccc(C2CC(=O)C3=C(C2)Nc2ccccc2NC3c2ccc(NC(C)=O)cc2)cc1OC (stereo not given)
  . | -1.24
- Cc1cccc(NC(=O)NCc2ccc3c(c2)cc(C)n3C)c1
  -0.75 | .
- Cc1cc(C)n2ncnc2n1
  -0.65 | .
- CCOc1cc2nccnc2cc1OCC
  2.1 | 93.3
- CCOc1ccccc1N(C)C(=O)c1cn(CC(C)C)c(=O)c2cc(OC)c(OC)cc12
  -0.65 | 0.905
- Cc1cc(OC(=O)N(C)C)nc(-c2ccc(C)c(Cl)c2)n1
  -0.55 | 0.06
- O=C1CCN(C(=O)/C=C/c2ccccc2)c2ccccc21
  0.8 | .
- CCOC(=O)N1CCC(c2cc(=O)n3[nH]c(-c4ccccc4)cc3n2)CC1
  0.75 | 0.47
- O=C(NCCCN1CCCC1=O)c1ccc(CNS(=O)(=O)c2ccc(F)cc2)cc1
  -0.45 | 0.48
- O=C1c2[nH]nc(-c3ccccc3)c2C(c2ccc([N+](=O)[O-])cc2)N1c1ccccc1 (stereo not given)
  . | -0.32
- O=C(CN1CCN(CCN=Cc2c(O)[nH]c(=O)[nH]c2=O)CC1)Nc1ccc(Br)cc1
  -0.35 | -0.255
- CC1(C)C2CC=C(/C=N/NC(N)=O)C1C2 (stereo not given)
  0.55 | .
- CC(=O)Nc1cccc(C(=O)OC(C)C(=O)N(C)c2ccccc2)c1 (stereo not given)
  -1.2 | .
- c1ccn(-c2ccc3nccnc3c2)c1
  -0.35 | 0.595
- COc1cc2c(cc1OC)C(C)N(C(=O)c1nccnc1C(=O)O)CC2 (stereo not given)
  1.85 | -0.93
- COC(=O)C1C2C=CC3(CN(C4CCCC4)C(=O)C13)O2 (stereo not given)
  -0.5 | .
- O=C(CN1C(=O)c2ccccc2C1=O)OCCN(C1=NS(=O)(=O)c2ccccc21)c1ccccc1Cl
  . | -0.55
- Cn1c(C(=O)NCc2ccc3c(c2)OCO3)cc2sccc21
  -0.7 | .
- CC1=C(C#N)C(C(F)(F)F)(C(F)(F)F)N=C(c2ccncc2)N1
  -0.4 | 0.13
- CNC(=O)c1nc(-c2ccccc2)oc1C(F)(F)F
  . | 0.14
- CS(=O)c1sc(C#N)c2c1C(=O)CCC2 (stereo not given)
  -2.5 | -0.18
- CC1=CC(C)C(C(=O)O)C(C(=O)O)C1 (stereo not given)
  0.95 | 1.47
- CCC(NC(=O)c1ccc(S(=O)(=O)N2CCOCC2)cc1)C12CC3CC(CC(C3)C1)C2 (stereo not given)
  -0.65 | 0.665
